Screens (PubChem)
gsp ag: gsp mutant agonism. gsp mutant cells, cAMP HTRF, 30 min; control for the full effect not named in the record. 340,000 compounds, 0.13% hits. Potency, µM (top dose mostly 76.9 µM), inactives show at the highest dose activation (cAMP increase), actives largely listed as activators; active = well fitted activation curve with a large enough effect; inconclusive = small, poorly fitted or top-dose-only effect, or another doubt; inactive = no such curve, though single readings can be large or run the other way; cell line not stated here;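 also: phosphodiesterase inhibitor Ro 20-1724 added with compounds to block cAMP breakdown; potency is read from the fitted curve at half-maximal effect; nearly all actives have a fitted effect of over 60% in size; about a fifth of the inactives were tested at one dose only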
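Cells stably selected in G418 were plated at 2000/well, grown 16-24 hr, then given compounds in DMSO with the PDE inhibitor […] (300 uM solution added) for 30 min at 37C; cAMP was read by HTRF.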
Menin MLL FP FL: displaces fluorescein MLL peptide from human menin | FP activity change, % at 61.4 µM | AID 1766 | Fluorescence polarization, fluorescein-MLL peptide displacement from menin | 290,000 tested, under 10 active; inconclusive = falling polarisation curve, or a change in total fluorescence; inactive = total fluorescence flat and polarisation flat or rising; no compound was filed as active; the % refers to the polarisation; negative = inhibition;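 also: % of control where 0% means no effect; inhibitors lower the polarisation; unlabelled MLL peptide was the positive control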
Sfp PPTase inh: inhibitors of Bacillus subtilis Sfp phosphopantetheinyl transferase. Potency, µM, for inactives: max response, negative = inhibition, hits mostly inhibitors. Biochemical Sfp PPTase activity, qHTS. 310,000 compounds, 3.5% hits; active = well fitted inhibition curve with a large enough effect; inconclusive = small, poorly fitted or top-dose-only effect, or another doubt; inactive = no such curve, though single readings can be large or run the other way;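 also: the enzyme is Sfp with the accession as filed and its product quenches rhodamine fluorescence; potency is read from the fitted curve at half-maximal effect; 0% = enzyme reaction without inhibitor and -100% = no enzyme wells; top concentration of the series not given in the record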
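Sfp 15 nM + cpd, 15 min RT; start w/ rhodamine-CoA 5 uM, BHQ-2-YbbR 12.5 uM (final); 50 mM Hepes pH 7.6, 10 mM MgCl2, 0.01% NP-40, 0.01% BSA; read 525/598 nm at 0 and 30 min.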
gsp antagonist: antagonizes gsp, the McCune-Albright syndrome mutation | gsp-mutant cells, cAMP HTRF, 30 min; control for the full effect not named in the record | AID 624288 | 340,000 compounds, 0.4% hits | Potency, µM (doses to about 76.9 µM), for inactives: at the top dose activity change, negative = inhibition, most hits filed as inhibitors; active = falling curve of any shape with a large fitted effect; inconclusive = falling curve, mostly with a smaller effect; inactive = flat or rising curve; cell line not stated here;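 also: intracellular cAMP measured with PDE inhibitor Ro 20-1724 present during compound exposure; potency is read from the fitted curve at half-maximal effect; % is scaled to controls: 0 for no effect and ±100 for the full control effect; nearly all actives have a fitted effect of over 65% in size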
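G418-selected cells were plated in DMEM/10% FBS for 16-24 h at 37C, then treated with compounds plus the PDE inhibitor […] (300 uM solution added) for 30 min at 37C. Intracellular cAMP was measured by HTRF after 30 min lysis at room temperature.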
TRPV1 potentiator: enhances activation of the human vanilloid receptor TRPV1 | TRPV1-expressing cells, Fluo-8 calcium influx, capsaicin EC20 potentiation; host cell line not named in the record; control for the full effect not named in the record | potentiation, % at 8.33 µM | 320,000 compounds, 0.02% hits | AID 540277; active means potentiation above 80%; inconclusive means 30% to 80%; inactive means below 30%; also: 0% is about no effect
Target sequence (Q8NER1 whole entry, looked up): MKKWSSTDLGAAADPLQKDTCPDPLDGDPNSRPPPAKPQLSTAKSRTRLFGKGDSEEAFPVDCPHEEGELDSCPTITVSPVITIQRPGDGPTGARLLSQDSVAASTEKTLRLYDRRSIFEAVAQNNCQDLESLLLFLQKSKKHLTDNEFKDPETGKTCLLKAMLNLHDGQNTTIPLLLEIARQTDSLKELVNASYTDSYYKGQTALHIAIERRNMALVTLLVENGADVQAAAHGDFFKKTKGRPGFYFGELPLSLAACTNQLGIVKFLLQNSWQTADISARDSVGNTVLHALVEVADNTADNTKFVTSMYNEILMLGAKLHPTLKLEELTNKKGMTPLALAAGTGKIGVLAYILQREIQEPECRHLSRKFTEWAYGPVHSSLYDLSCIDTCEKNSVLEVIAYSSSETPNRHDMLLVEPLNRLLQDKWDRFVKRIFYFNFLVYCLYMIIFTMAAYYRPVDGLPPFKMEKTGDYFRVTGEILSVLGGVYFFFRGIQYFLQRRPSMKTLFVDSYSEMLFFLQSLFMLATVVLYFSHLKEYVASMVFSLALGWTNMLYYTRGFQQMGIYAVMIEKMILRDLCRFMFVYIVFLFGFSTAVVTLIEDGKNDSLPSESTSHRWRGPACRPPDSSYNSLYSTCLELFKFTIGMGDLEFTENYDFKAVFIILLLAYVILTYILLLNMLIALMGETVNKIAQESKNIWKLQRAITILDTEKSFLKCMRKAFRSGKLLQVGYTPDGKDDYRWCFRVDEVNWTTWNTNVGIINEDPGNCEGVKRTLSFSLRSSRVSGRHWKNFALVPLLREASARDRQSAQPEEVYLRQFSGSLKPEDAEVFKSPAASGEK
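Fluo-8 calcium influx in TRPV1-expressing cells, kinetic read (ex 480/em 520 nm). Compound added and read 3 min for agonist activity, followed by capsaicin at EC20 final and 2 min further read for enhancement.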
TRPML1 blocker: human mucolipin-1 channel inhibition; 390,000 compounds, 0.02% hits; activity change, negative = inhibition, % (test concentration not listed); AID 624415; TRPML1-inducible cells, Ca2+ dye fluorescence, FDSS; hits give low values; inhibition of EC80 agonist-evoked calcium signal; Q9GZU1; in the data active means activity change below about -50%; inconclusive means about -30% to -50%; inactive means above about -30%;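 also: stimulus is agonist 54-4 at its EC80 concentration; % is scaled to controls: 0 for no effect and ±100 for the full control effect; compound concentration not given in the record; the text of the record puts the active cut at -80%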
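TRPML1-DL cells, Tet-induced overnight (~16 h, 37 °C) at 1,500 cells/well, were loaded with Ca8 no-wash dye plus quencher for 45-90 min at room temperature. Compounds were pinned during FDSS kinetic reading; agonist 54-4 at EC80 (4 uM final) then added.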
ClpP mod: qHTS Assay for Activators of ClpP | ATP-dependent Clp protease proteolytic subunit (Bacillus subtilis (strain 168)), P80244 | purified B. subtilis ClpP, FRET peptide cleavage, 20 min | Potency, µM (highest dose often 57.5 µM), without a hit: at the top dose activity change, negative = active | 340,000 compounds, 1.9% hits; active = well fitted falling curve with a large enough effect; inconclusive = small, poorly fitted or top-dose-only effect; inactive = no such curve, though single readings can be large or run the other way; also: potency is read from the fitted curve at half-maximal effect; the source files actives as falling curves though it sought activators and does not explain the sign; nearly all actives have a fitted effect of over 65% in size; many hits overshoot -100%
Target sequence (P80244 whole entry, looked up): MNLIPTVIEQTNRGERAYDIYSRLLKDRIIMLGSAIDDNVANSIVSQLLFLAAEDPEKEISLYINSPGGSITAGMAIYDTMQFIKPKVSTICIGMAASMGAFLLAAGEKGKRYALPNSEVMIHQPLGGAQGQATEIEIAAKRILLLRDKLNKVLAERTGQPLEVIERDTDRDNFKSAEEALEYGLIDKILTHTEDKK
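Buffer: 100 mM Tris/HCl pH8, 100 mM KCl, 0.05% low protease BSA, 2.5% glycerol, 0.01% Tween-20. ClpP 10 microg/mL final; 20 min RT; delta FRET normalized to ADEP and DMSO controls.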
* hit, by the source's call; ? = inconclusive; · = no result given; & = joins results of further samples; [ ] = dose if it differs, or a comment.

SMILES	gsp ag	Menin MLL FP FL	Sfp PPTase inh	gsp antagonist	TRPV1 potentiator	TRPML1 blocker	ClpP mod
CCOC(=O)C1CCN(C(=O)C2(NC(=O)Nc3ccccc3C)CCCCC2)CC1	7%[15.4 µM]	0.6	10%	10%	-4	3	·
O=C(O)C1CCC(N2C(=O)C3C4CCC(C4)C3C2=O)CC1 (centres undefined)	-21%	-0.4	7%	-3%	9	-7	-0.9%
CCN(CC)S(=O)(=O)c1ccc(N2CCOCC2)c(NC(=O)c2ccc3c(c2)OCCO3)c1	45%	·	·	3%	-10	12	-2.2%
CC(Oc1cccc(Br)c1)C(=O)NNC(=O)CCS(=O)(=O)c1ccccc1 (centres undefined)	-2%	·	·	-8%	·	3	1.9%
CCOC(=O)N1CCC(NC(=O)c2cnn3c(C(F)(F)F)cc(-c4cccc(OC)c4)nc23)CC1	20%	-0.4	6%	-8%	8	-18	-7.0%
CCOc1ccccc1Nc1nnc(SC(C)C(=O)Nc2nc(-c3ccccc3)cs2)s1 (centres undefined)	22%	8.1	3%	7%	?	-5	1.4%
O=C(NCc1ccccc1)C1=C[C@H](c2csc3ccccc23)C[C@H](OCc2ccc(CO)cc2)O1	·	6.7	3%	-18%	6	8	-6.2%
CCOc1ccc(NC(=O)C(NC(=O)C2CCC(C)CC2)C(C)C)cc1 (centres undefined)	?	-7.1	22%	-9%	9	?	0.7%&1.1%
COc1ccccc1-c1nnc2sc(C3CCCCC3)nn12	3%	-0.4	-4%	19%	-15	-2	1.3%
CCOc1ccc(NC(=O)CCc2c(C)noc2C)cc1OC	9%	·	·	8%	-3	-10	2.0%
O=C(COC(=O)c1ccccc1C(=O)N1CCN(c2ccccc2)CC1)Nc1ccc(F)cc1	9%	-2.0	6%	?	21	-1	-26%
CN(C)c1ccc(C=NNC(=O)c2cccnc2)cc1	?	·	·	?	·	8	1.7%
O=c1cc(Cc2nnc(SCc3ccccc3)n2-c2ccc(Cl)cc2)[nH]c(=O)[nH]1	?	-2.8	0%	26%	26	-3	-3.9%
CN(C)S(=O)(=O)c1ccc2c(c1)Cc1cc(S(=O)(=O)N(C)C)ccc1-2	25%	-1.6	5%	8%	-2	0	·
O=C(Nc1ccc2c3c(cccc13)CC2)c1ccc(Br)o1	1%	0.5	5%	-2%	-7	16	-1.9%
Clc1ccc(-c2noc(CN3CCN(c4ccccc4)CC3)n2)cc1	-14%	1.4	1%	4%	7	-1	-2.6%
O=C(O)c1ccc(-c2nc(-c3ccccc3)c(-c3cccs3)[nH]2)cc1	?	10.0	-8%	6%	18	-19	·
Cn1c(=NC(=O)C2=NNC(=O)CC2)sc2ccccc21	-7%[15.4 µM]	-2.7	18%	-28%	-10	-14	·
CN(CC(=O)NCc1ccccc1)Cc1ccc(Cl)cc1	11%	1.2	11%	5%	-19	-18	0.2%
CC(=O)c1ccc(N2CCN(C(=O)c3ccc(Cl)c(NC4=NC5CS(=O)(=O)CC5S4)c3)CC2)cc1 (centres undefined)	16%	·	15%	8%	0	3	-8.8%
CC(NC(=O)c1ccco1)C(c1cccs1)N1CCN(c2ccccc2)CC1 (centres undefined)	-43%	-0.8	3%	-11%	2	0	-0.1%
Cc1ccccc1CSCCNC(=O)Nc1ccccc1	2%	-2.9	-12%	-12%	0	-3	0.5%
O=C(CCn1c(=S)[nH]c2ccccc2c1=O)NCCc1ccccc1	7%[15.4 µM]	1.8	5%	-5%	?	1	·
COCCn1c(C)cc(C(=O)COC(=O)c2ccc([N+](=O)[O-])o2)c1C	?	-11	4%	-9%	2	11	1.1%
Cn1c2ccccc2c2cc(/C=C(\NC(=O)c3ccccc3)C(=O)O)ccc21	-9%[15.4 µM]	2.2	3%	-4%	5	1	·
c1coc(CNc2nc(-c3cccs3)cs2)c1	4%[15.4 µM]	0.1	-7%	-11%	-14	18	0.8%
CCOc1ccc(C(C)=O)cc1COC(=O)CNC(=O)c1cccs1	-18%	·	·	7%	-1	19	1.4%
COc1ccc(CC(CC(=O)O)C(=O)NCc2ccccc2)cc1 (centres undefined)	15%	-1.4	5%	5%	2	41	·
Cc1ccc(C(=O)NCCNS(=O)(=O)c2ccccc2)cc1	10%	0.3	16%	-4%	5	12	-0.4%
COc1ccc(CCN2CC(C(=O)N3CCC(OC)CC3)CCC2=O)cc1 (centres undefined)	0%	-0.9	13%	13%	3	-14	2.3%
OCC[C@@H]1C[C@@H](O)[C@H](O)[C@@]2(CCc3ccccc3O2)O1	-6%	-0.2	8%	1%	23	2	0.5%
COc1cc(OC)cc(N(C(=O)CNC(=O)c2ccco2)C(C(=O)NCC2CCCO2)c2ccccc2)c1 (centres undefined)	-11%	0.5	12%	-8%	-8	0	·
CCCNC(=O)N[C@@H](Cc1ccccc1)C(=O)OC	10%	1.6	14%	5%	7	5	-0.1%
Cc1ccc(-c2csc(N3CCN(c4cc5c(cc4Cl)nc(C(C)N)n5CCCO)CC3)n2)cc1 (centres undefined)	28%	-1.7	-5%	8%	11	22	-1.0%
Cc1ccc(S(=O)(=O)N2CCC(C(=O)OCC(=O)NC(C)c3ccc(F)cc3)CC2)cc1C (centres undefined)	-5%	·	·	1%	-2	10	2.3%
COc1ccc(Nc2oc(COc3ccccc3OC)nc2C#N)cc1	20%[15.4 µM]	·	0%	-14%	12	3	-0.8%
CCc1ccc(CNC(=O)c2ccc3c(c2)NC(=O)C(N2CCOCC2)S3)cc1 (centres undefined)	14%	5.8	-6%	-7%	8	29	1.3%
CC(=O)c1c(C)[nH]c(C(=O)/C(C#N)=C/c2cccc(C)c2)c1C	2%	1.1	-11%	-11%	1	3	·
CCOc1ccc(NC(=S)NCCCN2CCOCC2)cc1	8%[15.4 µM]	-1.1	9%	14%	-14	-4	·
Cc1ccc(S(=O)(=O)N2CCCCC2)cc1NS(=O)(=O)c1ccccc1F	-51%[inhibitor]	·	·	-4%	·	5	·
O=C(NCc1ccc2c(c1)OCO2)C1CC(=O)N(C2CCCC2)C1 (centres undefined)	-20%	2.4	26%	5%	-4	3	-2.8%
O=C1c2ccccc2C(Nc2cccnc2)N1Cc1ccc2c(c1)OCO2 (centres undefined)	-60%[inhibitor]	-0.2	21%	-7%	-5	-7	-1.4%
O=C(CSc1nccn1-c1cccc(F)c1)NC1CCCC1	-16%	·	·	4%	·	-12	-1.1%
O=C(c1ccco1)N1CCN(c2ncnc3scc(-c4cccs4)c23)CC1	-9%	4.9	-13%	-17%	-10	22	-1.4%
O=C(NCc1ccco1)c1cnn2c(C(F)(F)F)cc(-c3ccccc3)nc12	-6%	-0.9	25µM*	2%	-6	18	2.4%
O=C1Nc2ccccc2/C1=N\N=C\C1=C(N2CCOCC2)C(=C\c2ccccc2)/CC1	·	?	32µM*	·	21	·	·
COc1ccc(NC(=S)NNC(=O)COc2ccc(Cl)cc2Cl)cc1	7%	6.4	-10%	-7%	4	29	-22%
CC(C)(C)OC(=O)N1CCCC(C(=O)Nc2ccc(C(=O)NC3CC3)cc2)C1 (centres undefined)	·	·	·	-2%	·	-1	-0.8%
CCn1cc(C(=O)Nc2ncccc2O)c(=O)c2cc(F)c(N3CCN(C(=O)c4ccco4)CC3)cc21	-10%	·	20%	?	4	13	5.0%
O=C(/C=C/NNC(=O)c1cccc(Br)c1)c1ccccc1	1%	11	-20%	-2%	-5	12	-0.4%

The list goes on.
SMILES	gsp ag	Menin MLL FP FL	Sfp PPTase inh	gsp antagonist	TRPV1 potentiator	TRPML1 blocker	ClpP mod
O=C(Nc1ccc(Cl)cc1)N1CCCN(c2ccc(C(F)(F)F)cc2[N+](=O)[O-])CC1	8%[15.4 µM]	2.4	18%	-18%	-10	-8	·
CN(CC(=O)Nc1ccc(N2CCOCC2)cc1)C(=O)COc1ccccc1F	10%[15.4 µM]	-1.4	11%	5%	11	22	·
O=C(CCCn1c(=O)[nH]c2ccsc2c1=O)Nc1ccc(F)cc1	8%	0.8	0%	8%	4	-4	-3.9%
O=C(NCCc1ccccc1)c1ccc(=O)[nH]c1	13%	-0.4	8%	-23%	-10	-8	-2.9%
CC(C)c1ccc(C2NC(=O)NC3=C2CCc2ccccc23)cc1 (centres undefined)	-28%	6.3	-18%	5%	-4	17	28µM*
COCCn1c(CNc2ccc(F)cc2)nnc1SCC(=O)Nc1ccc(OC)cc1OC	8%	?	-5%	-18%	15	-2	-1.3%
Cc1ccc(C2C(C#N)=C(N)Oc3c2c(=O)n(C)c(=O)n3C)cc1 (centres undefined)	8%	8.8	-3%	0%	-2	-6	2.8%
CCOc1ccccc1C(=O)NCCNC(=O)c1ccccc1OCC	-14%[15.4 µM]	·	·	-7%	·	22	-1.9%
COCc1cc(C)nc(N/N=C/c2ccc(-c3ccc(Cl)cc3[N+](=O)[O-])o2)c1C#N	?	17	?	2%	8	11	·
CC(C)(C)OC(=O)N1CCCC1C(=O)N1CCCC1C(=O)N1CCCC1C(=O)O (centres undefined)	-3%	1.0	24%	15%	3	-1	-1.7%
NC(=O)c1cccnc1Nc1ccccc1Cl	0%[15.4 µM]	5.0	7%	4%	10	-5	·
CC(C)C[C@@H](CO)NC(=O)CC[C@H](NC(=O)OC(C)(C)C)C(=O)N(Cc1ccccc1)Cc1ccccc1	-10%	·	·	-3%	·	-18	0.7%
CSc1n[nH]c(=S)n1N	27%	5.1	45µM*	11%	-3	9	0.8%
C/C(=N\NC(=O)c1c(Br)c(C)nn1C)c1cccc(NC(=O)c2ccccc2C)c1	-27%	·	18%	-10%	-12	11	0.5%
COc1ccc(NC(=O)COC(=O)CCc2nc3ccccc3c(=O)[nH]2)c(OC)c1	-4%	·	·	-4%	-8	4	-0.5%
CCc1c(C(=O)NNC(=S)NCCc2ccccc2)csc1C	-27%	0.3	15%	15%	-11	-25	1.7%
